Screening data as filed in PubChem.
Prx2 Sm inh – Schistosoma Mansoni Peroxiredoxins (Prx2). Schistosoma mansoni peroxiredoxin 2 (Prx2). S. mansoni Prx2 activity coupled to TGR/GSH (TGR is thioredoxin glutathione reductase), NADPH fluorescence loss, qHTS; some inactives read as strong as hits. Potency, µM. hit rate 0.07% among 65,000. AID 448, 2006; active means full or partial inhibition curve with a strong effect at the top dose; inconclusive means weaker partial or single-point curve; inactive means no accepted curve; note: series up to 57 µM; many of its hits are not listed in these tables
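Prx2 inhibition was measured as reduced NADPH consumption when electrons flowed from NADPH through TGR and glutathione to Prx2 and H2O2. Plates were read kinetically over 8 min; enzyme reagents were held at 4 deg C during dispensing.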
Anthrax LT inh – qHTS Assay for Anthrax Lethal Toxin Internalization | Potency, µM (doses to about 40 µM), for inactives: at the highest dose activity change, negative = inhibition, actives largely listed as inhibitors | Cells, anthrax lethal toxin internalization, FRET ratio (460/530) | hit rate 0.67% among 70,000; active = well fitted falling ratio curve with the 530 nm signal flat; inconclusive = other ratio curves, or a change in one channel alone; inactive = flat curves in the ratio and both channels; the % refers to the ratio; note: % is set by controls: 0 for no effect and ±100 for the full control effect; nearly all actives have a fitted effect of over 50% in size; tested in ME-180 cells; beta-lactamase reporter
* hit, by the source's call; ? = inconclusive; nt = not tested or not shown; & = joins results of further samples; [ ] = dose if it differs, or a comment. Potency is the fitted concentration of half-maximal effect. Only part of the results is shown, so the mix of outcomes need not match the whole.

Compound,Prx2 Sm inh,Anthrax LT inh
CCOC(=O)c1ccc(N2C(=O)CC(N3CCC(O)(c4ccc(Cl)cc4)CC3)C2=O)cc1 (configuration not stated),>57,nt
CC(=O)NC(Cc1ccc(C)cc1)C(=O)NC1CCN(C(=O)c2cnccn2)CC1 (configuration not stated),>57,3%
O=C(Nc1cccc(N2CCCC2)c1)c1cccs1,>57,-8%
O=c1[nH]c(Cc2cccs2)nc2ccccc12,>57,0%
CCN(CC)C1=CC(=O)OC12CCCCC2,?,1%
O=C(Nc1c2c(nn1-c1ccc(F)cc1)CS(=O)(=O)C2)C12CC3CC(CC(C3)C1)C2,>57,-1%
CCOc1cc2[nH]c(=S)n(CCCC(=O)NCc3ccco3)c(=O)c2cc1OCC,>57,-6%
O=C(c1ccccc1)N1CCN(C2CCCCCC2)CC1,>57,2%
COc1cc(OC)cc(C(=O)Nc2cc(NC(=O)c3ccco3)ccc2OC)c1,>57,?
COC(=O)c1cc(-c2ccccc2)n[nH]1,>57,5%
CCCN1CCN(CCCNC(=O)CN2C(=O)COc3ccccc32)CC1,>57,9%
Cc1ccc(CNC(=O)c2ccc(Br)o2)cc1,nt,-3%

Compound profiles, from the list above. Screens in order: Prx2 Sm inh, Anthrax LT inh
Results for CCOC(=O)c1ccc(N2C(=O)CC(N3CCC(O)(c4ccc(Cl)cc4)CC3)C2=O)cc1 (configuration not stated) → >57, nt
Results for O=c1[nH]c(Cc2cccs2)nc2ccccc12 → >57, 0%
Results for CCCN1CCN(CCCNC(=O)CN2C(=O)COc3ccccc32)CC1 → >57, 9%
Results for O=C(c1ccccc1)N1CCN(C2CCCCCC2)CC1 → >57, 2%

Further entries.
Compound,Prx2 Sm inh,Anthrax LT inh
CC(=O)Nc1ccc(S(=O)(=O)N2CCC(n3cnc4cc(F)ccc43)CC2)cc1,>57,-12%
Cn1c(-c2ccc(Br)o2)nc2cc(Br)ccc21,>57,?
COc1ccc(C(C(O)C(=O)c2c[nH]c3ccccc23)N2CCN(c3ccccc3)CC2)cc1 (configuration not stated),>57,?
Cc1c(C(=O)N2CCCC2)nnn1-c1nonc1N,>57,?
Cc1ccc(-c2nn3c(-c4ccco4)nnc3c3ccccc23)cc1S(=O)(=O)NCC1CCCO1 (configuration not stated),>57,-7%
COc1cccc(OC)c1C(=O)Nc1ccc(CN2CCOCC2)cc1,>57,6%
CCC(C)[C@H](NC(=O)NC1CCCc2ccccc21)C(=O)O (some centres not stated),>57,3%
COc1cc(C(=O)OCC(=O)c2cc(C)n(C)c2C)cc(OC)c1OC,>57,9%
O=C(CSc1ccc2nnc(-c3ccccc3)n2n1)N1CCN(c2ccccc2)CC1,>57,?
CCOc1ccc2nc(NC3=NCN(Cc4ccco4)CN3)nc(C)c2c1,>57,-15%
Cc1ccc2nc(-c3ccc(SCC(=O)O)nc3)[nH]c2c1,>57,2%
CC(C)CCNC(=O)C1C2C=CC3(CN(Cc4ccccc4Cl)C(=O)C13)O2 (configuration not stated),>57,0%

The list goes on:
Compound,Prx2 Sm inh,Anthrax LT inh
O=C(NCCOC(=O)c1ccc(Cl)c(S(=O)(=O)N2CCCCC2)c1)c1ccncc1,?,?
C=CCOc1ccc(C2c3c(oc4ccccc4c3=O)C(=O)N2CCCN2CCOCC2)cc1 (configuration not stated),>57,nt
COc1ccc(-c2nc3cnc(OC)nc3n(Cc3cccc(OC)c3)c2=O)cc1,>57,?
COc1ccc(C)cc1NC(=O)CCN1CCCC1,>57,14%
COc1ccccc1N1CCN(C(=O)CSc2nnc(NC(=O)C3CC3)s2)CC1,>57,0%
CCOC(=O)N1CCN(C(=O)C(c2ccccc2)c2ccccc2)CC1,nt,21%
Cc1onc(-c2c(F)cccc2Cl)c1C(=O)Nc1ccc(S(=O)(=O)Nc2ncccn2)cc1,>57,-7%
CC(C)(C)c1o[nH]c(=O)c1C[C@H](N)C(=O)O,>57&>57,?
Cc1nc2c(-c3ccc(F)cc3)c(C)nn2c(C)c1CCC(=O)N1CCN(c2ccccn2)CC1,>57,-2%
CCN1CCN(CCNC(=O)C2CCN(Cc3nc(-c4ccc(Cl)cc4)oc3C)CC2)CC1,>57,?
O=C1NC(=O)[C@]2(Cc3ccccc3N3CCN(c4ccccc4)CC32)C(=O)N1c1ccccc1 (some centres not stated),>57,?
Cc1ccccc1OCCCC(=O)Nc1ccc2c(c1)OCO2,>57,-19%

(further entries)
Compound,Prx2 Sm inh,Anthrax LT inh
CC(=O)N1CCc2cc(Br)cc(S(=O)(=O)N3CCN(c4ccccn4)CC3)c21,>57,4%
COc1ccc(C)cc1Nc1cc(C)nc2nc(C)nn12,>57,-8%
CO[C@@H]1COC(=O)C/C=C\[C@@H](C)[C@H](OC)COC(=O)[C@@H](C)COC(=O)C/C=C\[C@H]1C,nt,18%[1.6 µM]
COc1ccc(C)cc1C(=O)CCC(=O)Nc1ccccc1N1CCOCC1,>57,16µM*
CC(=O)c1nc2ccccc2n1S(=O)(=O)c1ccc(C)cc1,>57,?
CC(NC(=O)OCc1ccccc1)C(=O)NCC1CCCO1 (configuration not stated),>57,-13%
CCOc1ccc(-c2noc(=O)[nH]2)cc1,>57,-6%
Brc1ccccc1-c1nnc2sc(Cc3ccccc3)nn12,>57,-9%
COc1ccc(OC)c2c1CC(C)(C)NC2=O,>57,4%
O=C(COC(=O)c1cc(S(=O)(=O)N2CCOCC2)ccc1Cl)Nc1ccc2c(c1)OCO2,>57,-4%
C1CCC2CCCCC2C1 (configuration not stated),nt,10%
O=C(COc1nsnc1N1CCOCC1)N1CCOCC1,>57,2%

Next records.
Compound,Prx2 Sm inh,Anthrax LT inh
CCC(=O)Nc1nnc(SCC(=O)Nc2ccc(F)cc2)s1,>57,9%
O=C(Nc1nccs1)c1ccc(COc2ccc(F)cc2)o1,>57,nt
N#CCc1nc2n(n1)Cc1ccccc1-2,>57,-4%
CN1CCN(c2ncc3nc(-c4ccccc4)c(=O)n(CCc4ccccc4)c3n2)CC1,>57,?
Cc1n[nH]c(C)c1S(=O)(=O)NCCc1ccc(Cl)cc1,>57,0%
Cc1oc(-c2ccccc2)cc1C(N)=O,>57,3%
COc1ccc(N(CC(=O)NCc2cccc(OC)c2)S(=O)(=O)c2c(C)noc2C)cc1,>57,-2%
COc1cc2nc(N3CCN(C(=O)OCc4ccccc4)[C@H](C(=O)NC(C)(C)C)C3)nc(N)c2cc1OC,>57,3%
COc1ccc(-c2nn(-c3ccccc3)cc2C(=O)Nc2nc(CC(C)=O)ns2)cc1,>57,-15%
CCCCNc1ncnc2c1cnn2-c1ccc(Cl)cc1,nt,?
CC1(C)O[C@H]2[C@@H](O1)[C@@H](On1nnc3ccc(Cl)cc31)O[C@@H]2[C@@H]1COC(C)(C)O1,>57,-3%[8 µM]
COC(=O)C(C)Sc1nc2c(c(=O)n1-c1ccccc1)SCC2 (configuration not stated),>57,11%

(next part)
Compound,Prx2 Sm inh,Anthrax LT inh
O=C(Nc1ccc2nc(-c3cccs3)c(-c3cccs3)nc2c1)N1CCOCC1,>57,?
CCC(=O)Nc1ccc(N2CCN(Cc3ccccc3)CC2)cc1,>57,-12%
NC1(C(=O)O)CCCCC1,>57,10%
Cc1nc(C)c(C(=O)C2=C(O)C(=O)N(CCCn3ccnc3)C2c2ccccc2)s1 (configuration not stated),>57,nt
COc1nc(NCCN2CCOCC2)nc(Nc2ccccc2)n1,>57,-12%
COc1ncc2nc(-c3cccc(C#N)c3)c(=O)n(CCC#N)c2n1,>57,-5%
COc1ccc(C(c2nnnn2C2CCCC2)N2CCN(C3CCCC3)CC2)cc1OC (configuration not stated),>57,?
COc1ccc2nc(NC3=NCCC3)sc2c1,>57,4%
Cc1ccc(NC(=O)CSc2nc3c(c(=O)[nH]2)CCC3)cc1C,>57,13%
CCCn1c(SCC(=O)Nc2cccc(C)n2)nnc1-c1ccco1,>57,-4%
CNc1ccnc(-c2cccc(NS(C)(=O)=O)c2)n1,>57,6%
CCCN(Cc1cc2ccc(C)cc2[nH]c1=O)C(=O)c1ccccn1,>57,nt

(more compounds)
Compound,Prx2 Sm inh,Anthrax LT inh
Nc1nonc1-c1noc(-c2ccccc2Br)n1,>57,-23%
O=C(CN1CCN(c2ccccc2F)CC1)Nc1ccccc1F,>57,-10%
[N-]=[N+]=CC(=O)CCCN1C(=O)c2ccccc2C1=O,>57,-8%
O=C(c1ccccc1)c1nc[nH]c1C(=O)Nc1ccccn1,>57,?
CCOC(=O)CC1=Nc2ccccc2NC(=O)C1,>57,-8%
CC(=O)Oc1ccc2cc(-c3nc4ccccc4n3C)c(=O)oc2c1,18*,?
Oc1ccccc1C(=S)N1CCCCCC1,>57,-7%
O=C(Nc1ccccc1-c1nnn(CC(=O)N2CCN(c3ccccc3)CC2)n1)c1cccs1,>57,-1%
O=C(O)CN1C(=O)C2C3C=CC(C3)C2C1=O (configuration not stated),>57,2%
O=C(CNCC1CCCO1)N1CCCc2ccccc21 (configuration not stated),>57,2%
CCCN1C(=O)C(O)(C2CC(=O)CC(C)(C)O2)c2ccccc21 (configuration not stated),>57,-7%
CCOC(=O)c1cccc(NC(=O)CSc2nc3cccnc3n2C)c1,>57,-17%

Remaining list, next part:
Compound,Prx2 Sm inh,Anthrax LT inh
COc1ccc(CNC(=O)C2CC(c3cccc(OC)c3)=NO2)cc1 (configuration not stated),>57,?
O=C(CSc1nnc(-c2ccccc2F)o1)OCc1ccccc1,>57,3%
Cc1ccc(Nc2cccccc2=O)cc1,>57,nt
O=C(Nc1cccc2cccc(NC(=O)c3ccco3)c12)c1ccco1,>57,2%
COc1ccc(S(=O)(=O)N2CCC(C(=O)N3CCCCCC3)CC2)cc1,>57,11%
Cc1ccc2[nH]c3c(c2c1)CN(C(=O)CN1CCSCC1)CC3,>57,nt
Cc1cc(C)c2[nH]c(=O)c(CN(Cc3ccc4c(c3)OCO4)Cc3nnnn3C3CCCC3)cc2c1,>57,-10%
Cc1cc(NC(=O)CCn2c(=O)sc3ccccc32)no1,>57,9%
N#Cc1c2n(c3c(=O)n(Cc4ccc(Cl)cc4)cnc13)CCCC2,nt,-1%
O=C(COc1cccc(-n2cnnn2)c1)N1CCOCC1,>57,?
COc1cc(NC(=O)CS(=O)(=O)c2ccccc2)cc(OC)c1OC,>57,-2%
CNC(=O)C1(C)C=CC2(CCCCC2)N1C(=O)OC (configuration not stated),nt,1%

(cont.)
Compound,Prx2 Sm inh,Anthrax LT inh
O=C(Cn1c(=O)oc2ccccc21)NCc1ccco1,>57,-8%
CCOC(=O)c1[nH]c(C)c(/C(O)=C2\C(=O)C(=O)N(CCN(C)C)C2c2ccco2)c1C (configuration not stated),>57,13%
O=C(NCCOC(=O)C1COc2ccccc2O1)C1COc2ccccc2O1 (configuration not stated),nt,-18%
CCOC(=O)N1CCC(NC(=O)CSCc2nc(-c3sccc3C)oc2C)CC1,nt,-8%
COc1ccc2[nH]cc(CCNc3ncnc4ccc(-c5ccccc5OC)cc34)c2c1,>57,10µM*
COCCNC(=O)C(c1ccc(F)cc1)N(Cc1ccco1)C(=O)CCC(=O)Nc1nccs1 (configuration not stated),>57,2%
Cc1nn(-c2nc3ccccc3s2)c(N)c1-c1ccccc1,>57,13µM*
O=C(c1cnccn1)N1CCC[C@@]2(CCN(Cc3nccs3)C2)C1,>57,3%
CSC1=N/C(=C\C=C\c2cccs2)C(=O)S1,nt,?
O=C(O)CN1C(=O)Nc2ccc(Br)cc2C1c1ccccc1 (configuration not stated),>57,-8%
Cc1ccc(-n2ncc(C#N)c2/N=C/N2CCOCC2)cc1,>57,-21%
N#Cc1c(-c2cccs2)cc(-c2cccnc2)nc1N,>57,?

New compounds follow.
Compound,Prx2 Sm inh,Anthrax LT inh
NC(=O)CC(NC(=O)OCc1ccccc1)C(=O)O (configuration not stated),>57,-6%
O=C(OCC#CCSc1nc2ccccc2o1)c1ccco1,>57,-19%
Cc1cc(C)cc(-n2nnnc2SCC(=O)Nc2cccc(NC(=O)c3ccco3)c2)c1,>57,?
COCc1cc(C)nc(SCC(=O)NCc2ccco2)c1C#N,>57,-2%
COc1ccccc1C(=O)NC(C)C(c1cccs1)N1CCOCC1 (configuration not stated),>57,10%
O=C(O)c1ccccc1C(=O)NCc1ccc(F)cc1,>57,16%
C=C1CC2C=C(NC(C)=O)CC(C1)C2 (configuration not stated),nt,-1%
CCCNc1ncccc1C(N)=O,>57,-2%
CC1(C)CC(=O)C(C=NCC2CCCO2)=C(O)C1 (configuration not stated),>57,-10%
O=C(COc1ccccc1Br)c1ccc(O)cc1O,>57,9%
CCOc1cc(NC(=O)C2CCCO2)c(OCC)cc1NC(=O)C1CC1 (configuration not stated),>57,6%
O=P(O)(O)CCP(=O)(O)O,>57,?
CCn1c(SCC(=O)Nc2cc(OC)ccc2OC)nnc1C1CCCCC1,>57,-8%
CCOC(=O)Nc1cccc(Cl)c1C,>57,-2%

Grouped by structure, the compounds so far with a tert-butyl group.
Compound,Prx2 Sm inh,Anthrax LT inh
CC(C)(C)c1o[nH]c(=O)c1C[C@H](N)C(=O)O,>57&>57,?
COc1cc2nc(N3CCN(C(=O)OCc4ccccc4)[C@H](C(=O)NC(C)(C)C)C3)nc(N)c2cc1OC,>57,3%
